RE007 growth inh = qHTS Assay for Inhibitors of the HIV-1 protein Vpr | S. pombe RE007 Vpr strain, BacTiter-Glo ATP luminescence, 24 h; control for the full effect not named in the record | 360,000 tested, 0.21% active | Potency, µM (doses to about 92.2 µM), without a hit: at the highest dose activity change, negative = less growth | AID 651644, 2012; active = well fitted falling curve with a large enough effect; inconclusive = small, poorly fitted or top-dose-only effect; inactive = no such curve, though single readings can be large or run the other way;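 further: on the % scale 0 is the no-effect control and ±100 the full control effect; nearly all actives have a fitted effect of over 50% in size; the assay follows cell death caused by Vpr and the record does not say whether a fall means rescue or toxicity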
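Fission yeast strain RE007, carrying one chromosomally integrated HIV-1 vpr copy, was seeded at OD 0.01 in PMG+AL medium with 23 nL pinned compound. After 24 h at 30 °C and 99% humidity, viability was read by BacTiter-Glo luminescence.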
SARS PLpro yeast = qHTS of Yeast-based Assay for SARS-CoV PLP | Potency, µM (series often up to 32.9 µM), inactives show top-dose activity, positive = growth rescue | 330,000 tested, 0.19% active | S. cerevisiae expressing SARS-CoV PLpro, growth rescue; control for the full effect not named in the record; active means well fitted rising curve with a large enough effect; inconclusive means small, poorly fitted or top-dose-only effect; inactive means no such curve, though single readings can be large or run the other way; further: 0% is about no effect; nearly all actives have a fitted effect of over 55% in size; growth read by luminescence after 48 h
2A StopGo = High Throughput Screening for Foot and Mouth Disease Virus Antivirals; human cells with a luciferase reporter of 2A StopGo recoding; control for the full effect not named in the record; Potency, µM (doses to about 57.9 µM), for inactives: at the top dose signal change, negative = less light; 410,000 tested, 1.2% active; AID 1159524, 2015; active = well fitted falling curve with a large enough effect; inconclusive = small, poorly fitted or top-dose-only effect; inactive = no such curve, though single readings can be large or run the other way; tested in HEK293T cells; further: on the % scale 0 is the no-effect control and ±100 the full control effect; nearly all actives have a fitted effect of over 45% in size; luciferase light after 4 h
Starred values were filed as active, the others as inactive; ? = inconclusive; [ ] = another dose, or the depositor's remark. Potency means the concentration at half of the fitted maximal effect. This is a subset (hit frequency here may not be typical).

canonical_smiles	SARS PLpro yeast	RE007 growth inh	2A StopGo
CC(C)NC(=O)N(C)C[C@H]1Oc2ccc(NS(=O)(=O)c3ccc(F)cc3)cc2C(=O)N([C@H](C)CO)C[C@@H]1C	-5%	2%	0%
COc1ccccc1CNC(=O)COC(=O)c1ccc(C)s1	-1%	-1%	8%
O=C(CSc1nnc(-c2ccccc2F)o1)NC1CC1	-1%	2%	44%[activator]
O=C(CN1CCN(S(=O)(=O)c2ccccc2F)CC1)Nc1ccnn1C1CCCC1	-7%	?	-25%
CC(C)(C)c1ccc(C(=O)OCC(=O)NCc2ccco2)cc1	8%	-19%	-26%
O=C(Nc1ccc(N2CCN(C(=O)c3cccs3)CC2)cc1)c1ccc(Br)o1	-9%	-20%	-16%
O=C(CCNC(=O)c1ccccc1)Nc1nc2ccccc2s1	5%	3%	29%
C=Cc1ccc(C2=CC(=O)C[C@H](c3ccc(OC)cc3)C2)cc1	-2%	1%	?
Cc1onc(-c2ccccc2)c1C(=O)Nc1cccc(S(=O)(=O)NC2=NCCC2)c1	-1%	24%	36%[activator]
O=C(Nc1ccc(S(=O)(=O)NC2=NCCCCC2)cc1)c1cccs1	-5%	15%	15%
Cc1onc(-c2c(F)cccc2Cl)c1C(=O)OCC(=O)NC1CC1	0%	0%	1%
C=CCN=C1CCCc2c1[nH]c1ccc(C)cc21	-10%	-2%	41%[activator]
CCN1C[C@@H]2[C@@H]3C(=O)N(Cc4ccccc4)C(=O)[C@@H]3[C@](Cc3ccccc3)(C(=O)OC)N2C1=NC1CCCCC1	?	-21%	-19%
Cc1nn(Cc2ccccc2)c(Cl)c1C(=O)OCC(=O)NCC1CCCO1 (stereo not given)	0%	-4%	-12%
Cc1ccc(NC(=O)Cn2nc(C)c(S(=O)(=O)N(C)C)c2C)cc1	-1%	5%	-16%
CCN(Cc1cccs1)C(=O)CN1C(=O)NC2(CCCc3ccccc32)C1=O (stereo not given)	6%	28%	-3%
Cc1cc(/C=C2\C(=O)NC(=O)N(c3ccc(Br)cc3)C2=O)c(C)n1C	-1%	11%	-11%
CCOC(=O)[C@H]1[C@H]2COc3ccc(Br)cc3[C@@H]2N2C(=O)CN(Cc3ccc(OC)cc3)C(=O)[C@@]12C	-1%	-5%	-21%
CCOc1ccccc1C(=O)NCC(=O)NCC(C)(C)N1CCOCC1	3%	2%	-16%
COc1ccc(CC(=O)OCC(=O)Nc2c(C)n(C)n(-c3ccccc3)c2=O)cc1OC	5%	-12%	-9%
C=C(C)C(=O)OCC(O)COc1ccc(C(C)(C)c2ccc(OCC(O)COC(=O)C(=C)C)cc2)cc1 (stereo not given)	-3%	5%[18.4 µM]	40µM*
COc1ccccc1NS(=O)(=O)c1ccc(C(=O)NCC(c2ccco2)N(C)C)cc1 (stereo not given)	4%	1%	-17%
Cc1ccccc1-c1nc(S(=O)(=O)c2ccccc2)c(N2CCCC2)o1	0%	27%	24%
CSCCC(NC(=O)COc1ccccc1)C(=O)NCCOc1ccccc1 (stereo not given)	7%	-8%	32%[activator]
CCOc1ccc(NC(=O)Cn2nc(C(N)=O)c3ccccc3c2=O)cc1S(=O)(=O)N1CCCC1	2%	-16%	-14%
Cc1nn(-c2ccc(F)cc2)c(Cl)c1C(=O)OC(C)C(=O)N(C)C1CCCCC1 (stereo not given)	-8%	2%	?
Cc1cccc2c(N=NC(=O)c3ccc(NS(=O)(=O)c4cccs4)cc3)c(O)[nH]c12	8%	-8%	9%
CCNC(=O)N(C)C[C@H]1N[C@@](C)(C(=O)OC)[C@H]2C(=O)N(C)C(=O)[C@@H]12	-3%	4%	-1%
O=C(CCc1nc2ccccc2c(=O)[nH]1)NNC(=O)COc1cccc(F)c1	1%	-3%	-12%
O=C(CCNC(=O)c1ccccc1Cl)Nc1nc2ccc(F)cc2s1	1%	-10%	41%[activator]

Some of the entries so far, field by field.
> CC(C)(C)c1ccc(C(=O)OCC(=O)NCc2ccco2)cc1
  SARS PLpro yeast: 8%
  RE007 growth inh: -19%
  2A StopGo: -26%
> O=C(Nc1ccc(N2CCN(C(=O)c3cccs3)CC2)cc1)c1ccc(Br)o1
  SARS PLpro yeast: -9%
  RE007 growth inh: -20%
  2A StopGo: -16%
> O=C(CCNC(=O)c1ccccc1)Nc1nc2ccccc2s1
  SARS PLpro yeast: 5%
  RE007 growth inh: 3%
  2A StopGo: 29%

Molecules from the list above containing bromine (3):
canonical_smiles	SARS PLpro yeast	RE007 growth inh	2A StopGo
O=C(Nc1ccc(N2CCN(C(=O)c3cccs3)CC2)cc1)c1ccc(Br)o1	-9%	-20%	-16%
Cc1cc(/C=C2\C(=O)NC(=O)N(c3ccc(Br)cc3)C2=O)c(C)n1C	-1%	11%	-11%
CCOC(=O)[C@H]1[C@H]2COc3ccc(Br)cc3[C@@H]2N2C(=O)CN(Cc3ccc(OC)cc3)C(=O)[C@@]12C	-1%	-5%	-21%

Further entries.
canonical_smiles	SARS PLpro yeast	RE007 growth inh	2A StopGo
NC(=O)C[C@H](N)c1cn([C@@H](CC(N)=O)C(=O)N2CCNCC2)nn1	0%	4%	-11%
O=C(C[C@@H]1C/C=C/CC[C@H](Cc2ccc(F)cc2)C(=O)O[C@H](c2ccccc2)CNC1=O)NCCO	-6%	-3%	-3%
O=C(CCc1ccc(S(=O)(=O)N2CCOCC2)cc1)Nc1ccccc1F	2%	-6%	8%
CCN(CC(=O)Nc1ccc(OC)cc1)CC(=O)N1CC(=O)Nc2ccccc21	1%	14%	-2%
O=C1[C@H]2[C@@H](c3ccc(Cl)cc3)N3C(=O)N(c4cccc(Cl)c4)C(=O)[C@@]3(Cc3ccccc3)[C@H]2C(=O)N1C1CCCCC1	1%	-1%	-11%
CCN(CC)C(CNC(=O)CSc1nnnn1-c1ccc(C)c(C)c1)c1ccco1 (stereo not given)	1%	-8%	-10%
N#Cc1ccc(S(=O)(=O)NC[C@H]2O[C@@H](n3cnc4c(N)ncnc43)[C@H](O)[C@@H]2O)cc1	13%	9%	-12%
CN(C(=O)COc1ncnc2sccc12)c1ccccc1	-3%	-6%	-7%
CN(C)S(=O)(=O)c1ccc(Cl)c(C(=O)OCC(=O)NNC(=O)c2cccs2)c1	-4%	4%	0%
CCOc1ccc(C(=O)COC(=O)CN2C(=O)NC3(CCCCC3C)C2=O)cc1 (stereo not given)	-3%	15%	0%
O=C(OCC(=O)N1CCCCCC1)c1ccc[nH]c1=O	9%	-17%	-4%
O=C1[C@H]2CC3CCC2(O3)[C@@H]2OCCCN12 (stereo not given in full)	14%	-8%	1%
CCOc1ccc(C(=O)NC2CC3CCCC(C2)N3CC(C)C)cc1 (stereo not given)	0%	10%	-12%
N#Cc1ccccc1OCC(=O)OCC(=O)NC1CC1	-3%	-1%	-11%
O=C(Nc1ccon1)c1nc[nH]c1C(=O)N1CCN(c2ccccc2)CC1	4%	-3%	17%
C[C@H](NC(=O)c1nc[nH]c1C(=O)NCCCCCN)C(=O)OC(C)(C)C	0%	-10%	3%
NC(=O)c1cc([N+](=O)[O-])c(Cl)cc1NCc1ccncc1	-13%	-2%	-5%
CN(Cc1ccccc1)C(=O)c1ccc(NC(=O)Cc2cccc(NC(=O)C3CCCN(C(=O)CCc4ccccc4)C3)c2)cc1 (stereo not given)	2%	5%	?
Cc1ccc(S(=O)(=O)N2CCCCC2)cc1NC(=O)c1ccccc1Cl	-8%	11%	-5%
O=S(=O)(c1ccccc1)N1CCN=C1SCc1cccnc1	1%	-7%	-1%
COCC(C)n1c(SCC(=O)N2CC(=O)Nc3ccccc32)nc2ccccc2c1=O (stereo not given)	-1%	-28%	-17%
Cc1ccc(CNC(=O)c2cc(-c3ccccc3)n(Cc3cc(C)no3)n2)cc1	-1%	0%	-4%
Cc1ccccc1C(=O)N1CCC(C(=O)Nc2sccc2C(N)=O)CC1	1%	-2%	-17%
COc1ccc(NC(=O)CSc2nncc3ccccc23)cc1	-4%	-4%	18%
O=C(Nc1c2c(nn1-c1ccccc1)CS(=O)C2)c1ccc(S(=O)(=O)N2CCOCC2)cc1 (stereo not given)	1%	3%	13%
COc1ccc(C)cc1NC(=O)c1cc(-c2ccccc2)nc2c1cnn2C(C)C	0%	1%	-16%
O=C1C=C(/C=C/c2ccccc2)C[C@@H](c2ccc(F)cc2)C1	2%	-9%	-2%
C=CC(=O)Nc1cccc(Oc2cc(Cl)nc3[nH]ccc23)c1	-1%	22%	?
COC(=O)c1ccc(CNC(=O)COC(=O)/C=C/c2ccc(OC)c(OC)c2)cc1	-1%	2%	-7%
Cc1ccc(C(=O)CN(CCCC(N)=O)C(=O)c2ccncc2)cc1	-6%	14%	-6%

More compounds.
canonical_smiles	SARS PLpro yeast	RE007 growth inh	2A StopGo
CCCN(Cc1nnc(-c2cccs2)o1)C(=O)CN1C(=O)NC2(CCCCC2C)C1=O (stereo not given)	1%	-10%	-16%
Cc1ccc(S(=O)(=O)N2CCN(C(=O)c3ccccn3)CC2)c(C)c1	-1%	-3%	-13%
O=C(COc1ccc(/C=N/NC(=O)c2ccc(O)cc2)cc1)Nc1cccc([N+](=O)[O-])c1	2%	1%	-1%
COc1ccc(NC(=O)N(C)C[C@H]2Oc3c(NC(=O)c4nc5ccccc5s4)cccc3C(=O)N([C@@H](C)CO)C[C@H]2C)cc1	-2%	5%	-14%
COc1ccc(C)cc1NC(=O)CSc1ccc(-c2cccnc2)nn1	-6%	1%	4%
CCN(CC)S(=O)(=O)c1ccc(N2CCCC2)c(NS(=O)(=O)c2cccs2)c1	2%	8%	61%[activator]
CCN(C[C@H]1N[C@@](C)(C(=O)OC)[C@H]2C(=O)N(C)C(=O)[C@@H]12)C(=O)Nc1ccc(C)cc1	-5%	1%	-3%
COc1ccccc1NS(=O)(=O)c1cccc(NC(=O)c2nn(C)c(=O)c3ccccc23)c1	2%	23%	-10%
O=C(C[C@H]1C/C=C\CC[C@@H](Cc2ccc(F)cc2)C(=O)OC[C@H]2CCCN2C1=O)NCCO	3%	-1%	-12%
O=C(COC(=O)c1cccc(Cl)c1)Nc1cccc(S(=O)(=O)NC2=NCCC2)c1	-5%	2%	-8%
COc1ccc(CN(C)C(=O)c2ccccc2OCc2c(C)noc2C)cc1OC	-2%	4%	-17%
CCCNC(=O)C(Cc1ccccc1)NC(=O)c1ccccn1 (stereo not given)	0%	-6%	1%
COC(=O)[C@H](CC(C)C)NC(=O)Cn1cnc(C(=O)Nc2ccc(C)c(C)c2)n1	2%	7%	37%[activator]
CC1CCCN(S(=O)(=O)c2cc(C(=O)NCc3ccco3)ccc2Cl)C1 (stereo not given)	-1%	15%	3%
CC1=C/C(=C/N(C)C)C(=O)O1	-1%	-8%	-5%
CCOc1ccc(OCCCC(=O)N(CC)CC(=O)Nc2c(F)cccc2F)cc1	-4%	3%	-17%
CON(C)C(=O)CC(CNC(=O)OC(C)(C)C)c1ccc(Cl)cc1 (stereo not given)	0%	-3%	6%
CCN(C[C@H]1N[C@@](C)(C(=O)OC)[C@H]2C(=O)N(Cc3ccccc3)C(=O)[C@@H]12)C(=O)Nc1ccc(Cl)cc1	4%	11%	-19%
Cc1ccccc1CNC(=O)Cc1cccs1	1%	-25%	55%[activator]
O=C(COC(=O)c1ccco1)Nc1ccc([N+](=O)[O-])cc1Cl	3%	-29%	0%
Cc1ccc(NC(=O)CN(C)C(=O)c2ccc(Sc3nncn3C)c([N+](=O)[O-])c2)cc1	-1%	-14%	-15%
CC[C@]12c3[nH]c4ccccc4c3CCN1C(=O)C(CC(=O)NCCN1CCOCC1)C[C@@H]2C(=O)N1CCN(C(=O)C2CC2)CC1 (stereo not given in full)	0%	-11%	-7%
CCOP(=O)(OCC)c1nc(-c2cccc([N+](=O)[O-])c2)oc1N1CCCCC1	1%	9%	-17%

A draw from above in order of molecular weight, ascending:
canonical_smiles	SARS PLpro yeast	RE007 growth inh	2A StopGo
CCN(C[C@H]1N[C@@](C)(C(=O)OC)[C@H]2C(=O)N(C)C(=O)[C@@H]12)C(=O)Nc1ccc(C)cc1	-5%	1%	-3%
CCN(C[C@H]1N[C@@](C)(C(=O)OC)[C@H]2C(=O)N(Cc3ccccc3)C(=O)[C@@H]12)C(=O)Nc1ccc(Cl)cc1	4%	11%	-19%
CC[C@]12c3[nH]c4ccccc4c3CCN1C(=O)C(CC(=O)NCCN1CCOCC1)C[C@@H]2C(=O)N1CCN(C(=O)C2CC2)CC1 (stereo not given in full)	0%	-11%	-7%

Source: PubChem (National Center for Advancing Translational Sciences (NCATS))
